PINK1 modulator: changes PINK1 expression. PINK1 immunofluorescence, high-content cytometry, 24 h. Potency, µM (highest dose often 76.6 µM), for the others: top-dose activation (PINK1 increase), actives largely listed as activators. actives 0.2% (n = 410,000); active = well fitted activation curve with a large enough effect; inconclusive = small, poorly fitted or top-dose-only effect; inactive = flat fitted curve, though single readings scatter; cell line not stated here;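 also: % of control where 0% means no effect; nearly all actives have a fitted effect of over 65% in size; a mitochondrial uncoupler was the plate control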
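Stable cell line treated 24 h with compounds at 5 concentrations (CCCP controls), then fixed and immunostained for PINK1 plus nuclear and cell stains; PINK1 immunofluorescence quantified by laser-scanning microplate cytometry.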
* = called active by the depositor. Potency is read from the fitted curve at half-maximal effect. Not all compounds are listed; rates above refer to the full screens.

Structure,PINK1 modulator
Cc1ccc(CNc2ccc(-c3nc(-c4cccnc4)no3)cc2[N+](=O)[O-])cc1,1.5%
CCOc1ccc(CCNC(=O)Cn2nnc(-c3ccccc3Cl)n2)cc1OCC,4.1%
CC(C)c1cc(-c2nc(-c3ccccc3)no2)n[nH]1,-0.4%
Cc1c(C(=O)N(C)Cc2cccc3ncccc23)cnn1-c1nccc(-c2ccccc2F)n1,0.8%
Cc1ccc(Cl)cc1NC(=O)Nc1nnc(N(C)Cc2ccccc2)s1,1.0%
O=C(Nc1ccc(N2CCC(N3CCCCC3)CC2)c(C(=O)O)c1)c1ccccc1,-0.8%
CCOC(=O)C1CCN(c2c(C(=O)c3ccc(OCC)cc3)cnc3ccc(OC)cc23)CC1,1.9%
Cc1cccc(-n2c(SCC(=O)Nc3ccccc3C)nc3c(oc4ccccc43)c2=O)c1,1.1%
CCc1ccc(C(=O)c2cn(CC(=O)Nc3ccc(F)cc3)c3cc4c(cc3c2=O)OCO4)cc1,1.6%
CCCc1cc(=O)n2[nH]c(-c3ccc(C)cc3)nc2n1,0.5%
Cc1ccc(-n2c(=O)c3cccnc3n2CC(=O)NCc2ccc(F)cc2)cc1C,5.8%
CCCc1cc(=O)n2c(C(=O)Nc3ccc(OCC)cc3)c(C(=O)Nc3ccc(C)cc3)sc2n1,-0.9%

(list continues)
Structure,PINK1 modulator
Cc1ccc2cc(CN(C(=O)c3cccc(Cl)c3)c3ccccc3)c(=O)[nH]c2c1,-1.7%
COC(=O)c1ccc(NC(=O)N2CCc3c([nH]c4ccccc34)C2c2ccc(C)cc2)cc1 (stereo unspecified),0.3%
CC(=O)N1CCc2cc(Br)cc(S(=O)(=O)N3CCC(C(=O)N(C)c4cc(C)ccc4C)CC3)c21,0.4%
CCCS(=O)(=O)N1CCCC(C(=O)NCCOC)C1 (stereo unspecified),-0.6%
CCOC(=O)c1c(SCC(=O)Nc2cc(Cl)cc(Cl)c2)nc(=O)[nH]c1C,-1.6%
COc1cc2c(cc1OC)n(CC(=O)Nc1ccccc1)c(=O)n1nc(-c3ccccc3)nc21,1.7%
Cc1cccc(NC(=O)CSC2=Nc3ccccc3C3=NC(CC(=O)NCc4cccs4)C(=O)N23)c1 (stereo unspecified),1.3%
O=C(Cn1cnc2nc3c(cc2c1=O)CCCC3)N1CCN(c2cccc(C(F)(F)F)c2)CC1,1.6%
O=C(CCn1c(=O)c2sccc2n(Cc2ccc(F)cc2)c1=O)NCc1ccc2c(c1)OCO2,-0.6%
COc1ccccc1C1CN(Cc2ccccc2O)Cc2ccccc2O1 (stereo unspecified),0.1%
CCOc1ccc(NC(=O)c2c(NC(=O)c3cccc(C)c3)sc3c2CCC3)cc1,0.7%
CCC(=O)N1CCc2cc(S(=O)(=O)NC(Cc3ccccc3)C(=O)Nc3ccc(Cl)cc3)ccc21 (stereo unspecified),2.1%

Filtered by structure: the entries above with a Cl atom (five)
Structure,PINK1 modulator
CCOc1ccc(CCNC(=O)Cn2nnc(-c3ccccc3Cl)n2)cc1OCC,4.1%
Cc1ccc(Cl)cc1NC(=O)Nc1nnc(N(C)Cc2ccccc2)s1,1.0%
Cc1ccc2cc(CN(C(=O)c3cccc(Cl)c3)c3ccccc3)c(=O)[nH]c2c1,-1.7%
CCOC(=O)c1c(SCC(=O)Nc2cc(Cl)cc(Cl)c2)nc(=O)[nH]c1C,-1.6%
CCC(=O)N1CCc2cc(S(=O)(=O)NC(Cc3ccccc3)C(=O)Nc3ccc(Cl)cc3)ccc21 (stereo unspecified),2.1%

(cont.)
Structure,PINK1 modulator
CCOc1ccc(CNC(=O)C2CCCN(S(=O)(=O)c3ccc4c(ccn4C)c3)C2)cc1 (stereo unspecified),3.7%
Cc1ccc(-c2cc(C(=O)OCC(=O)c3ccccc3)c3cccc(Cl)c3n2)cc1,1.4%
COc1ccc(NC(=O)CSC2=Nc3ccccc3C3=NC(CCC(=O)NCc4cccs4)C(=O)N23)cc1 (stereo unspecified),0.5%
Cc1oc(-c2ccccc2NC(=O)C2CCC2)nc1CNC(=O)c1ccc2ccccc2c1,0.8%
COc1ccc(-c2cc(C(F)(F)F)n3nc(C(=O)Nc4cccc(C(F)(F)F)c4)c(Br)c3n2)cc1,0.1%
COc1cc(-c2nc3nc(C)cc(C)n3c2Nc2ccc(Cl)cc2)ccc1O,1.6%
O=C(NC1CC(=O)N(c2ccc(F)cc2)C1)c1ccc(S(=O)(=O)N2CCOCC2)cc1 (stereo unspecified),0.7%
Cc1ccc(CNC(=O)CN(C)S(=O)(=O)c2ccc(Br)s2)cc1,2.9%
COc1ccc(CNC(=O)c2ccc3c(c2)nc2n3CCCCC2)cc1,0.7%
CCOc1cc(CNCCSc2nnnn2-c2ccccc2)ccc1OC,0.4%
CC(=O)Nc1ccc(/C=C/c2sc3ccccc3[n+]2CCCCI)cc1,0.0%
CCOc1ccc2c(c1)c(=O)c(C(=O)c1ccc3c(c1)OCO3)cn2Cc1ccc(F)cc1,-0.2%

The results go on:
Structure,PINK1 modulator
COc1ccc(NC(=O)CSc2nc(-c3cccs3)cc(C(F)(F)F)n2)cc1OC,-0.5%
Cc1ccc(NC(=O)c2ccc(CN3CC(=O)N4CCCCC4C3=O)cc2)cc1 (stereo unspecified),1.0%
COc1cccc(-c2ccc(O)c(CNCc3cccc(OC)c3OC)c2)n1,0.8%
Cc1ccc(NS(=O)(=O)c2ccc3c(c2)[C@H]2C=CC[C@H]2[C@@H](c2ccc(F)cc2)N3)cc1C,14%
Cc1cccc(Cn2c(SCc3ccc(C(=O)N4CCC(C)CC4)cc3)nc3ccncc32)c1,1.5%
CCc1ccc(C2=C(C)C(N3CCC(C(=O)Nc4cccc(OC)c4)CC3)=NS2(=O)=O)cc1,9.7%
Cc1ccc(C)c(CNC(=O)C2CCCCN2S(=O)(=O)c2ccc(F)cc2)c1 (stereo unspecified),1.6%
CCOC(=O)c1ccccc1Nc1nc2ccc(C)cc2n2nnnc12,0.4%
CCOc1ccc(NC(=O)CSc2oc(-c3ccc(C)cc3)nc2S(=O)(=O)c2ccc(C)cc2)cc1,-1.3%
COc1cc(S(=O)(=O)n2ccnc2C(C)C)ccc1Br,1.5%
COC(=O)c1ccc(NC(=O)CC2C(=O)N(c3cccc(C)c3)C(=O)N2C2CCCC2)cc1 (stereo unspecified),4.2%
O=C(Nc1cccc(Cl)c1)Nc1ccccc1OCc1cc(=O)n2ccccc2n1,-11%

The results go on.
Compound	PINK1 modulator
Cc1cc2c(c(-c3cnccn3)c1)OC(CNC(=O)c1cc(Cl)ccc1F)C2 (stereo unspecified)	0.6%
COc1cc(=O)n2c(c1C(=O)N(C)Cc1nonc1C)CCN(C(=O)c1ccc(C)c(C)c1)CC2	-0.6%
CCC(C)NC(=O)c1ccc2c(c1)sc1nc(-c3ccc(OC)cc3)cn12 (stereo unspecified)	5.9%
COCc1c(C(=O)N2CCC(N(C)C)C2)cnn1-c1ncc2c(n1)-c1ccccc1CCC2 (stereo unspecified)	0.1%
Cc1ccc(C)c(NC(=O)Cn2c(SCC(=O)NCc3ccccc3)nc3ccccc32)c1	1.2%
CCC1Oc2ccccc2N(CC(=O)NCc2ccccc2)C1=O (stereo unspecified)	0.5%
CCOc1ccc(-c2cc3c(=O)n(CC(=O)NCc4ccc(C)cc4)ccn3n2)cc1	-0.4%
CCOC(=O)c1ccc(-c2ccc(/C=C(\C#N)C(=O)Nc3c(C)cccc3Cl)o2)cc1	-0.2%

A draw from above in order of length of the SMILES, lowest first:
Compound	PINK1 modulator
CCC1Oc2ccccc2N(CC(=O)NCc2ccccc2)C1=O (stereo unspecified)	0.5%
CCC(C)NC(=O)c1ccc2c(c1)sc1nc(-c3ccc(OC)cc3)cn12 (stereo unspecified)	5.9%
CCOC(=O)c1ccc(-c2ccc(/C=C(\C#N)C(=O)Nc3c(C)cccc3Cl)o2)cc1	-0.2%

Carrying on.
Compound	PINK1 modulator
Cc1ccc(C(=O)Nc2c(-c3ccccc3)nc3ccccn23)cc1	1.5%
CC(C)CC(=O)Nc1c(C(=O)N2CCN(c3ccccc3F)CC2)oc2ccccc12	2.5%
CCOc1ccc(-c2nc(CSCC(=O)NCc3ccc(C)cc3)c(C)o2)cc1	-0.9%
CCc1ccc(OCC(=O)Nc2ccc(-c3nc4ncccc4o3)cc2)cc1	1.2%
CCN1CCN(CCCNC(=O)Cn2c(-c3cccs3)cc3ccccc32)CC1	0.9%
Cc1ccc(Cl)cc1NC(=O)CSc1nc2ccccc2c2nc(-c3ccccc3)nn12	1.3%
Cc1ccc(CNC(=O)Cn2ncc3c([nH]c4ccc(C)cc43)c2=O)cc1	2.5%
CCOC(=O)c1c(C)oc2ncnc(N3CCN(c4ccccc4F)CC3)c12	1.0%

Three entries already listed, ordered by the value under PINK1 modulator, falling.
Compound	PINK1 modulator
Cc1ccc(Cl)cc1NC(=O)CSc1nc2ccccc2c2nc(-c3ccccc3)nn12	1.3%
CCOC(=O)c1c(C)oc2ncnc(N3CCN(c4ccccc4F)CC3)c12	1.0%
CCN1CCN(CCCNC(=O)Cn2c(-c3cccs3)cc3ccccc32)CC1	0.9%

Continuation.
Compound	PINK1 modulator
CCOc1ccc(NC(=O)Cn2c(=O)n(CCCC(=O)NCCc3ccc(Cl)cc3)c(=O)c3ccccc32)cc1	-1.2%
CCOC(=O)C(C)Sc1nnc2ccc3ccccc3n12 (stereo unspecified)	0.3%
O=C1c2oc3ccc(F)cc3c(=O)c2C(c2cccc([N+](=O)[O-])c2)N1CCCN1CCOCC1 (stereo unspecified)	-1.2%
CCOC(=O)c1c(NC(=O)c2cc(-c3ccc(OC)c(OC)c3)on2)sc(C)c1C	2.1%
COc1ccc2c(c1)c1c(c(=O)n(-c3cccc(C)c3)c(=O)n1CC(=O)NCCC1=CCCCC1)n2C	2.3%
Fc1cccc(-c2nnn3c2nc(NCc2ccc4c(c2)OCO4)c2ccccc23)c1	0.0%
Cc1cccc(N2CCN(C(=O)c3ccc4c(c3)N(Cc3cccc(Cl)c3)C(=O)c3ccccc3S4=O)CC2C)c1 (stereo unspecified)	5.4%
COc1cc(C)c(CN2C[C@H](Sc3nc4ccccc4[nH]3)C[C@H]2C(=O)N(C)C)cc1C	1.9%

Going on with the list.
Compound	PINK1 modulator
O=C(Nc1ccc(F)cc1)c1ncn(-c2ccccc2)n1	-2.6%
COc1ccc(-c2nc3scc(CCNS(=O)(=O)c4cccc(C(C)=O)c4)n3n2)cc1	2.6%
Cc1ccc(NC(=O)c2ccc3c(=O)n4nc(Nc5ccccc5C)sc4nc3c2)cc1C	-0.7%
Cc1ccc2c(c1)CN(CCNC(=O)c1c(-c3ccccc3)noc1C)CC(C)O2 (stereo unspecified)	-0.3%
COc1ccc(OC)c2sc(N(Cc3cccnc3)C(=O)c3ccc(C(C)=O)cc3)nc12	-0.6%
CCC(=O)N1CCc2cc(S(=O)(=O)NCCC(=O)Nc3ccc(C)cc3)ccc21	0.4%
COc1ccc(-c2noc(CSc3nnc(Cc4ccccc4)n3-c3ccc(F)cc3)n2)cc1	6.2%
COc1ccc(OC)c(CCNC(=O)c2ccc3c(c2)c(C)c(C)n3Cc2ccccc2)c1	0.5%

Following part:
Compound	PINK1 modulator
COc1ccccc1CN1CCC2(CC1)c1ccccc1[C@@H](NC(=O)c1ccco1)[C@@H]2OC	-0.6%
CCOC(=O)c1ccc(NC(=O)Cn2cc(C(=O)c3cccs3)c3ccccc32)cc1	1.9%
CCn1c(=O)n(-c2ccc3c(c2)OCO3)c2nc(-c3ccc(C(C)C)cc3)nc(C(N)=O)c21	4.7%
Cc1cccnc1-c1cccc2c1OC(CNC(=O)C1CCCc3c1[nH]c1ccccc31)C2 (stereo unspecified)	1.0%
COc1ccc(C2NC(=O)N(C)C3=C2C(=O)N(c2ccc(C)cc2)C3)cc1 (stereo unspecified)	-4.8%
COc1ccc(CNC(=O)c2ccc3c(c2)CCN3S(=O)(=O)c2ccc(C)cc2)cc1	3.7%
Cc1ccc(C(=O)c2cn(CC(=O)NC3CCCCC3)c3nc(C)ccc3c2=O)cc1	-1.5%
COc1ccc(Cl)cc1NC(=O)CSC1=Nc2ccccc2C2=NC(CC(=O)NC3CCCCC3)C(=O)N12 (stereo unspecified)	1.1%

Continuation:
Compound	PINK1 modulator
CCc1ccc(NC(=O)C2CCN(c3nc(-c4ccc(OC)cc4)no3)CC2)cc1	-0.2%
COc1ccc(-c2nc3sc(CCNC(=O)c4cccc(C(F)(F)F)c4)c(C)n3n2)cc1	5.9%
COc1ccc2c(CNCCc3ccc(SC)cc3)c(C(=O)O)n(Cc3ccc(F)cc3)c2c1	0.7%
CCc1ccc(S(=O)(=O)NCCc2cn3ccsc3n2)cc1	2.4%
CN(C)c1ccc(/C=C2\C=Nc3ccccc32)cc1	-0.5%
Cc1cccc(N2CCN(C(=O)Cn3ncc4c5ccccc5n(C)c4c3=O)CC2)c1C	10.0%
CCc1cccc(C)c1NC(=O)CCCn1nc(C)c2sc3ccccc3c2c1=O	0.4%
Cc1ccc(Cn2c(CN3CCC(C(=O)NCc4ccccc4C)CC3)cc3ccccc32)cc1	0.8%

Next compounds:
Compound	PINK1 modulator
CCCSc1ncc(Cl)c(C(=O)Nc2ccc(S(=O)(=O)N3CCC(C)CC3)cc2)n1	1.0%
Cc1ccc2nc(-c3c[nH]c4ccccc34)c(Nc3ccccc3)n2c1	4.8%
CCOc1ccc(-c2nonc2NC(=O)COc2c(C)cc(C)cc2C)cc1OCC	6.4%
Cc1cc(NS(=O)(=O)c2ccc(NC(=O)COc3ccc(Cl)cc3)cc2)nc(C)n1	0.6%
COc1ccccc1Cc1nc2ccccc2nc1SCC(=O)N1CCCc2ccccc21	1.2%
CCOC(=O)c1ccc(N2C(=O)c3n[nH]c(-c4cccs4)c3C2c2cccc(F)c2)cc1 (stereo unspecified)	1.5%
COc1ccc(N2CCN(C(=O)c3ccc4c(c3)N(Cc3ccc(F)cc3)C(=O)c3ccccc3S4=O)CC2)cc1 (stereo unspecified)	0.1%
